Screening data as filed in PubChem.
VACV Venus inh: qHTS for Stage-Specific Inhibitors of Vaccinia Orthopoxvirus: Venus Reporter Primary qHTS. Vaccinia virus Venus reporter expression, fluorescence. Potency, µM (top dose mostly 36.5 µM), for inactives: at the highest dose activity change, negative = inhibition, actives largely listed as inhibitors. actives 0.46% (n = 330,000); active means well fitted inhibition curve with a large enough effect; inconclusive means small, poorly fitted or top-dose-only effect; inactive means no such curve, though single readings can be large or run the other way; tested in A549 cells; further: nearly all actives have a fitted effect of over 30% in size; inactives centre near -10
Vaccinia mCherry: qHTS for Stage-Specific Inhibitors of Vaccinia Orthopoxvirus: mCherry Reporter Primary qHTS; AID 720579, 2013; actives 0.63% (n = 310,000); Potency, µM (top dose mostly 36.5 µM), without a hit: at the highest dose activity change, negative = inhibition, actives largely listed as inhibitors; Vaccinia virus mCherry reporter infection, fluorescence; about a quarter of the inactives have no number; active = well fitted inhibition curve with a large enough effect; inconclusive = small, poorly fitted or top-dose-only effect; inactive = no such curve, though single readings can be large or run the other way; tested in A549 cells; further: nearly all actives have a fitted effect of over 35% in size; inactives centre near -10
* marks the source's active call; other numbers are inactive results; i = inactive; ? = inconclusive; · = no result given; & = joins results of further samples; [ ] = remark or other dose. On the % scale 0 is the no-effect control and ±100 the full control effect; potency means the concentration at half of the fitted maximal effect.

Molecule	VACV Venus inh	Vaccinia mCherry
CCCOc1ccc(CCc2n[nH]c(=S)n2-c2ccccc2)cc1	-6%	i
Clc1cccc(-n2ncc3c(N4CCCCCC4)ncnc32)c1	6%	3%
Cc1cc(C)c2c(N)c(-c3nnc(SCc4ccc(Cl)cc4)n3C)sc2n1	-2%	-3%
O=C(CSc1ccccc1)Nc1nnc(C2CC2)s1	-3%	i
CC(C)NC(=S)N1CCN(Cc2ccc3c(c2)OCO3)CC1	-8%	i
O=C(CN1CCN(CC(=O)Nc2ccc(OCc3ccccc3)cc2)CC1)Nc1ccc(F)cc1	-24%	?
CC(=O)NC1C(=O)N=C(SCC(=O)NC(C)c2ccccc2)NC1=O (configuration not stated)	2%	-17%
O=C(NCc1ccccc1)NC(=O)c1ccc(Cl)cc1	-12%	i
COc1cc2ncc3c(-c4ccc(C)cc4)nn(-c4ccc(F)cc4F)c3c2cc1OC	-18%	-29%
N#C/C(=C\c1ccc(OCc2ccccc2)cc1)C(=O)Nc1nc2c(s1)CCN(Cc1ccccc1)C2	-2%	-13%
C/C(=N\N=C(N)N)c1ccccc1	1%	-5%
COc1ccc(NS(=O)(=O)c2ccc(N3CCOCC3)c(NC(=O)C(C)C)c2)cc1	-9%	-7%
O=C(NC1CCCc2ccccc21)c1ccc([N+](=O)[O-])cc1 (configuration not stated)	-4%	-7%
Cc1ccc(-c2cc(C(=O)Nc3cccc(S(=O)(=O)N(C)C)c3)c3ccccc3n2)o1	2%	-10%
CC(C(=O)Nc1ccccn1)N1C(=O)C2C3C=CC(C3)C2C1=O (configuration not stated)	-7%	-4%
COc1ccc(N2C(=O)NC(=O)C(CCc3ccncc3)(CCc3ccncc3)C2=O)cc1	-18%	-6%
CCOc1ccc(Oc2c(/C=N/NC(=O)COc3ccccc3OC)c(C)nn2-c2ccccc2)cc1	?	-18%
O=C(COc1ccc(Br)cc1CO)Nc1ccc(S(=O)(=O)N2CCCC2)cc1	-26%	-14%
O=C1c2ccccc2C(=O)N1CCC(c1ccc(F)cc1)c1ccco1 (configuration not stated)	-6%	-6%
COCCCN(C(=O)Cc1ccc(Cl)c(Cl)c1)c1c(N)n(Cc2ccccc2)c(=O)[nH]c1=O	1%	-8%
CCCN1CCN(CCCNC(=O)Cn2c(-c3cccs3)cc3ccccc32)CC1	-15%	-10%
CCOC(=O)n1ccn(C)c1=S	-6%	-12%
CC1CC1C(=O)OCC(=O)NCc1ccccc1Cl (configuration not stated)	-17%	-6%
COc1ccc([N+](=O)[O-])cc1N=Cc1c(O)n(CCc2ccccc2)c(=O)n(C(C)C)c1=O	6%	-4%
O=C(Cc1ccccc1)N/N=C/c1ccc2cccc(O)c2n1	-17%	?
CCN(CC)S(=O)(=O)c1ccc2c(c1)nc(CCC(=O)OCC(=O)N1CCc3ccccc31)n2C	-5%	-9%
COc1ccc([C@H]2CC(=O)C=C(c3ccc(Cl)cc3C)C2)cc1	-30%	?
COc1cccc(/C=C/C(=O)OCC(=O)NCC2CCCO2)c1 (configuration not stated)	-5%	-8%
COc1cc(CC(=O)OCC(=O)c2ccc(F)cc2)cc(OC)c1OC	-7%	-15%
O=C1NC2(CCCCCC2)C(=O)N1Cc1cccc(Cl)c1	-14%	-6%
CC(C)(C)S(=O)N1Cc2cc(C(=O)NCCCN3CCOCC3)nc(-c3cccc(-c4cc5ccccc5o4)c3)c2[C@@H]1CCO (some centres not stated)	-3%	i
CCN(Cc1ccccc1)C(c1ccc(Cl)cc1)c1nnnn1C(C)(C)C (configuration not stated)	2%	·
Cc1ccccc1CCNC(=O)c1ccc2c(c1)nc1n2CCOC1	-11%	-12%
Cc1nc(-c2ccc(Cl)cc2)sc1C(=O)NNC(=O)C(C)C	-12%	i
CCCCn1c(N)c(N(CC(C)C)C(=O)c2ccc(Br)s2)c(=O)[nH]c1=O	-22%	i
CCC1CCCCN1CC(=O)N1CCCc2c1c(=O)oc1ccc(OCc3ccccc3)cc21 (configuration not stated)	-28%	-30%
O=C(CSc1nnc(COc2cccc3ccccc23)o1)N1CCN(C(=O)c2ccco2)CC1	0%	i
CC#CCCc1nc2ccccc2c(=O)n1N	-9%	i
c1ccc(CC[C@@H]2CC[C@@H](CCc3ccccc3)N2)cc1	-12%	i
COc1ccc(-c2nnc3ccc(SCc4ccccc4)nn23)cc1	-20%	i
CC(C)CCNC(=O)C1(C)CCN1Cc1ccc2ccccc2c1 (configuration not stated)	14%	24%
CCc1ccc(NC(=O)CSc2nnc(-c3n[nH]c4ccccc34)n2-c2ccccc2)cc1	-18%	-20%
C#CCn1c(O)c(N=NC(=O)CNC(=O)/C=C/c2ccccc2)c2ccccc21	-1%	-21%
CCOC(=O)CNC(=O)Nc1cc(C(C)(C)C)nn1-c1ccccc1	-12%	·
CCOc1cc(NC(=S)NCCOC)c(OCC)cc1NC(=O)c1ccco1	-6%	-23%
CN(Cc1ccccc1)C(=O)Cn1c(=O)c2cccn2c2ccc(F)cc21	-13%	-17%
C#CC(=O)N(c1cc(OC)ccc1OC)C(C(=O)NC1CCCC1)c1cccs1 (configuration not stated)	10µM*	11µM*
COc1ccc(CCNC(=O)Cn2nc(C)n3c(cc4cc(F)ccc43)c2=O)cc1OC	0%	-7%
CCc1ccccc1NC(=O)Cn1nc(C(F)(F)F)c2c1CCC2	-4%&-14%	-10%
CCCCC(CC)COC(=O)c1ccccc1C(=O)OCC(CC)CCCC (configuration not stated)	-18%	i
Cn1nnnc1SCC(=O)Nc1ccc(Br)cc1Cl	-13%	·
CCc1ccc(NC(=O)NCc2cccnc2)cc1	-5%	-15%
COC(=O)[C@]1(C)N[C@H](CN(C)C(=O)Nc2ccc(C)cc2)[C@@H]2C(=O)N(C)C(=O)[C@@H]21	-5%	-10%
O=C(CSc1ccc(-c2ccco2)nn1)Nc1ccc(F)cc1F	-15%	-22%
COc1cccc(CNC(=O)c2cc(-c3cccc(OC)c3)n[nH]2)c1	-3%	-8%
O=c1c2ccccc2oc2cc(C#CC3(O)CCCCC3)ccc12	-25%	-15%
O=c1c2cccnc2n(-c2ccccc2)n1Cc1ccc(Cl)cc1	3%	0%
COc1cccc(/C=N/NC(=O)C(C)Sc2ccccc2)c1 (configuration not stated)	-7%	-7%
Cc1cc(C)c(-c2nc3ccccc3s2)[nH]1	10%	?
Cc1ccc2cc(CN(Cc3ccc4c(c3)OCO4)Cc3nnnn3Cc3ccco3)c(=O)[nH]c2c1	?	0%[1.46 µM]

Compounds above that have a tert-butyl group (3):
Molecule	VACV Venus inh	Vaccinia mCherry
CC(C)(C)S(=O)N1Cc2cc(C(=O)NCCCN3CCOCC3)nc(-c3cccc(-c4cc5ccccc5o4)c3)c2[C@@H]1CCO (some centres not stated)	-3%	i
CCN(Cc1ccccc1)C(c1ccc(Cl)cc1)c1nnnn1C(C)(C)C (configuration not stated)	2%	·
CCOC(=O)CNC(=O)Nc1cc(C(C)(C)C)nn1-c1ccccc1	-12%	·

Remaining list, next part:
Molecule	VACV Venus inh	Vaccinia mCherry
Cc1sc(NC(=O)C2=COCCO2)c(C#N)c1C	-7%	-10%
O=C(OCC(=O)N1N=C(c2ccc(Cl)cc2)CC1c1ccco1)c1cncc(Br)c1 (configuration not stated)	-6%	-7%
CC(NC(=O)COc1ccc(/C=N/NC(=O)C(=O)Nc2ccccc2Br)cc1)c1ccccc1 (configuration not stated)	3%	·
Cc1cc(NC(=O)CCCn2cnc([N+](=O)[O-])n2)no1	-8%	-15%
Cc1ccc(NC(=O)CSc2nc(=O)cc(N)n2CCc2ccccc2)cc1	-2%	-7%
COc1cc(C)c(Cl)cc1S(=O)(=O)n1cnc(C)c1	-27%	-14%
COc1ccc(NC(=O)Nc2ccc(Cc3ccncc3)cc2)c(OC)c1	-21%	-7%
O=C(O)c1cccc(NC(=O)c2cc3cc(Br)cc(Br)c3oc2=O)c1	-6%	-1%
Oc1ccc(N2CCN(Cc3cc4c(cc3Br)OCCO4)CC2)cc1	2%	?
CCOC(=O)CNC(=O)CSc1nnnn1-c1ccc(C)c(C)c1	-7%	·
Cc1ccc(C(=O)NCC(=O)OCCOc2ccccc2Cl)cc1	-12%	-8%
CCOC(=O)Nc1c(Cl)n(C)c(=O)n(C)c1=O	-26%	i
COc1ccccc1CN1CCNC(=O)C1CC(=O)NCc1csc(C)n1 (configuration not stated)	-6%	-5%
CCOc1ccc(Br)cc1S(=O)(=O)NCCN(C)C	-18%	-13%
COc1ccc(-c2csc(NC(=O)CS(=O)(=O)c3ccc(F)cc3)n2)cc1OC	-18%	-19%
COc1ccccc1C(=O)Nc1sc(Nc2ccccc2)nc1C(N)=O	-9%	-15%
COCc1cc(C)nc(SCC(=O)N2CCC(C)CC2)c1C#N	-16%	-4%
O=C1[C@H]2[C@@H]3CCN1CCC[C@@H]2C=C[C@@H]3c1ccc(Br)cc1	-3%	13%
O=C(C(=O)N1CCN(c2ccccc2F)CC1)c1cn(CC(=O)N2CCOCC2)c2ccccc12	-4%	-15%
COc1ccc(Cl)cc1NC(=O)C/C(C)=N/NC(=O)CC#N	-10%	i
CCCCOc1ccc(-c2nn(-c3ccccc3)cc2C2NC(=O)NC(C)=C2C(=O)OCC)cc1 (configuration not stated)	-21%	-12%
Cc1ccc(S(=O)(=O)N(CC(=O)N2CCCCC2)c2cccc(C)c2)cc1	-11%	·
O=C(NCCS(=O)(=O)N1CCC2(CC1)OCCO2)c1ccccc1	-10%	i
C[C@@H]1CN([C@@H](C)CO)S(=O)(=O)c2ccc(/C=C/c3ccccc3)cc2O[C@@H]1CN(C)Cc1ccc(C(=O)O)cc1	-19%	-13%
O=C(CC1C(=O)N(c2ccccc2)C(=S)N1c1ccccc1)c1ccc(Br)cc1 (configuration not stated)	1%	-13%
COc1ccc(NC(=O)C[C@H]2C(=O)N(c3ccccc3)C[C@@H]2CSC)cc1	-14%	-15%
O=c1c2ccccc2nnn1-c1ccccc1[N+](=O)[O-]	-5%	-13%
CCSc1ccc([C@@H]2[C@H]3C(=O)N(C)C(=O)[C@H]3[C@]3(C(=O)OC)CCCCN23)cc1OC	?	-20%
Cc1ccc2nc(NC(=O)c3cccn(Cc4ccc(Cl)cc4)c3=O)sc2c1	5%	3%
COc1ccc(-c2nc(SCC(=O)NCCc3ccc(OC)c(OC)c3)n[nH]2)cc1	-17%	-16%
COc1cccc(NC(=O)CN(C2=NC3CS(=O)(=O)CC3S2)c2cccc(C)c2)c1 (configuration not stated)	-11%	-10%
O=C(Cn1cc([N+](=O)[O-])cn1)Nc1nc2ccccc2s1	-11%	-21%
Cc1cccc(OCC(=O)OCc2cc(=O)n3nc(C4CC4)sc3n2)c1	-4%	-14%
O=[N+]([O-])c1ccc(/C=C/C2=NN(c3ccccc3)C(c3ccco3)C2)o1 (configuration not stated)	·	200%[activator]
CCC(=O)N1CCC(C)(C(=O)NCc2ccc(F)cc2)C1 (configuration not stated)	-3%	6%
CCC(C)(C(=O)NC1CCCCC1)N(Cc1ccco1)C(=O)c1ccccn1 (configuration not stated)	1%	-6%
Cc1ccc(-n2nc(C(=O)N3CCN(c4cccc(C(F)(F)F)c4)CC3)c3c4ccccc4n(C)c3c2=O)cc1	4%	-2%
O=C(CCNC(=O)c1ccccc1Cl)Nc1nc2ccccc2[nH]1	-5%	i
Cc1ccccc1C(=O)N1CCN(c2nc(N3CCOCC3)nc(N3CCOCC3)n2)CC1	9%	·
O=C(Nc1ccc(Oc2ccccc2)cc1)N[C@@H](Cc1ccccc1)C(=O)O	-8%	i
NC(=O)[C@@H]1CCCN1Cc1nc(Cc2cccc(C(F)(F)F)c2)no1	-9%	i
O=C(Nc1nnc(-c2ccccc2)o1)Nc1ccc(F)cc1F	2%	-1%
Cc1ccc2cc(CCNC(=O)c3ccco3)c(=O)[nH]c2c1C	-10%	-14%
O=C(ONC(=O)C1C2C=CC(C2)C1C(=O)NOC(=O)c1ccccc1)c1ccccc1 (configuration not stated)	-29%	?
CCCNc1ccc(-c2nc(-c3ccncc3)no2)cc1[N+](=O)[O-]	-3%	-6%
CC(CCO)Nc1nc2c([nH]1)c(=O)n(C)c(=O)n2C (configuration not stated)	-22%	-6%
O=C1CN(C(=O)/C=C/c2ccc(Br)cc2)CCN1	-2%	2%
c1cncc(-c2nc(NCc3ccco3)c3ccccc3n2)c1	-14%	i
Cc1ccc(S(=O)(=O)N2CCCN(C(=O)CNC(=O)c3ccccc3)CC2)cc1	-19%	-17%
COc1ccccc1Cc1c(-c2ccc(Cl)cc2)nc2c(C)cc(Br)cn12	?	?
O=c1oc2cc(O)c(Cl)cc2c2ccccc12	-12%	i
CCn1cc(C(=O)NCc2ccc3c(c2)OCO3)c2cc(OC)c(OC)cc2c1=O	-21%	-23%
N/C(=N\NC(=O)c1ccc(Cl)cc1)c1cnccn1	0%	?
